Bioassay records deposited in PubChem BioAssay by several laboratories.
TCR-CD3 inh: blocks the human TCR-CD3 interaction; inhibition, % at 9.4 µM; 360,000 compounds, 0.37% hits; TAMRA-labeled TCR probe fluorescence, biochemical; in the data active means inhibition above about 19%;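 further: recombinant mutant TCR 2C K166C tagged with TAMRA read by polarization; 0% = receptor in buffer alone and 100% = receptor with positive control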
PRMT1 inh: blocks human protein arginine methyltransferase 1; recombinant PRMT1, activity-based probe fluorescence polarization; Q99873; 370,000 compounds, 1.3% hits; inhibition, % at 2.79 µM;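 active means inhibition above about 21% made by adding two undisclosed values, limit read from the data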
Target sequence (Q99873 whole entry, looked up): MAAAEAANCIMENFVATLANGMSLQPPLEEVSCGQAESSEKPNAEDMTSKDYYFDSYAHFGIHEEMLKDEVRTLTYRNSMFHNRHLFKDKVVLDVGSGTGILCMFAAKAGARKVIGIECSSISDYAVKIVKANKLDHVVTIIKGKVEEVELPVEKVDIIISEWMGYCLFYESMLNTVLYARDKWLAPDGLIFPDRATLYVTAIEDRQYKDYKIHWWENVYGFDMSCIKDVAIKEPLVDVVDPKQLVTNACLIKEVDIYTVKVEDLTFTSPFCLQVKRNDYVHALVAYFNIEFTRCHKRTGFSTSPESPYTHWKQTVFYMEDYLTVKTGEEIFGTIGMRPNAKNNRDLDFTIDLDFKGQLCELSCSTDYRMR
MBD2 inh: inhibitors of human MBD2 binding to methylated oligonucleotide | 370,000 compounds, 0.31% hits | inhibition, % at 4.4 µM | Q9UBB5 | TR-FRET; in the data active means inhibition above about 13%
UHRF1 MBD2 ctr: UHRF1 methyl-DNA binding inhibition | 370,000 compounds, 0.75% hits | UHRF1 binding to methylated oligo, TR-FRET | Q96T88 | inhibition, % at 4.4 µM; in the data active means inhibition above about 21%;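 further: UHRF1 SRA domain binding a hemimethylated CpG hairpin DNA probe; 0% = median of test compound wells and 100% = reference inhibitor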
NPR2 activator: GC-B (human) receptor activation. 370,000 compounds, 0.11% hits. AID 1920062. HEK293-GC-B cells, CNP EC30, cGMP TR-FRET; 0% at EC30 CNP, 100% saturating CNP. P20594. activation, % at 10 µM;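 active means activation at 10 µM reaching about 35% in either raw or pattern-adjusted values, limit read from the data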
mABHD4 FP: inhibits mouse alpha/beta hydrolase domain 4; purified mABHD4, FP-Rh probe fluorescence polarization; 370,000 compounds, 0.54% hits; Q8VD66; inhibition, % at 8.92 µM;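 active means inhibition exceeding the mean over every tested compound plus 3 SD, cut at about 30% in these data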;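 further: 0% = plate median of compound wells and 100% = S159A mutant with DMSO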
Target sequence (Q8VD66 whole entry, looked up, the tested form may be a part): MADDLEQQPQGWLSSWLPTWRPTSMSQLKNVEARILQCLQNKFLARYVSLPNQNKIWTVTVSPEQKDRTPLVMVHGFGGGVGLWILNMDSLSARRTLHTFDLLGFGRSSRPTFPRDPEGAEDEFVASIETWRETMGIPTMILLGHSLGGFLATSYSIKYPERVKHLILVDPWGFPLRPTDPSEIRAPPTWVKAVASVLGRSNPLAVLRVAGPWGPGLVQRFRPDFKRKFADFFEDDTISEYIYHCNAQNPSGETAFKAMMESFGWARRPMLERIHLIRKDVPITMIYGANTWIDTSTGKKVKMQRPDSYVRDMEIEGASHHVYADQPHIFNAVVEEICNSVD
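Doses – 8.92 µM, single dose · Material – wild-type mouse ABHD4 protein · Replication – single well per compound (singlicate) · Measure – percent inhibition of probe binding, normalized to plate controls · Schedule – 45 min compound pre-incubation plus 60 min probe step, 25 °C · Detection – fluorescence polarization with parallel and perpendicular emission, 525/598 nm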
GC-A act: GC-A (human) enzyme activation; activation, % at 10 µM; P16066; AID 1671463; HEK293 GC-A cells, cGMP TR-FRET, EC30 ANP; 0% at EC30 ANP, 100% saturating ANP; 370,000 compounds, 0.14% hits; in the data active means activation above about 40%
rCAG RNA binder: r(CAG) repeat RNA binding; TO-PRO-1 dye displacement fluorescence; inhibition, % at 3 µM; 370,000 compounds, 1.3% hits; AID 651821;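 active means inhibition above the plate cutoff, the mean of all test compounds on that plate plus 3 SD, cut at about 35% in these data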;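 further: 0% = DMSO alone and 100% = 100 µM mitoxantrone as full dye displacement; higher means more dye released from RNA so lower well fluorescence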
SIAE inh: blocks human sialic acid acetylesterase; SIAE FP-Rh probe binding, fluorescence polarization; 370,000 compounds, 0.69% hits; inhibition, % at 9.66 µM; Q9HAT2;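 active means inhibition above a cutoff: mean of compounds within the control limits plus 3 SD of those, cut at about 17% in these data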;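 further: 0% = plate median of compound wells and 100% = probe without SIAE protein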
Starred values were filed as active, the others as inactive; x = no result given. These rows are one share of the data (hit frequency here may not be typical).

SMILES	TCR-CD3 inh	PRMT1 inh	MBD2 inh	UHRF1 MBD2 ctr	NPR2 activator	mABHD4 FP	GC-A act	rCAG RNA binder	SIAE inh
Cc1c(CN2CCC(n3nccc3NC(=O)c3cccc(F)c3)CC2)cnn1C	-1	5	6	5	-3	-13	1	-7	0
COc1cnc(-c2ccccn2)nc1Sc1ccc(Cl)cc1	1	-1	7	3	-6	4	-13	-1	-1
O=C(c1ccc(Cl)cc1)N1N=C(c2ccccn2)CC1(O)C(F)(F)F (stereo not given)	-6	-3	4	1	-6	6	0	-11	-1
Cc1cccc(C)c1Nc1nnc(SCC(=O)Nc2sccc2C#N)s1	-3	2	1	-3	-7	0	-5	14	-3
Cn1c(-c2ccccc2)c(C#Cc2ccc(N)cc2)c2ccccc21	0	3	9	17	-5	4	-2	15	7
Cc1ccc(C(CNS(=O)(=O)c2cc(F)ccc2F)N2CCN(C)CC2)cc1 (stereo not given)	-4	0	0	1	-2	3	-1	-5	-1
O=C(OC1CCOC1=O)c1cccc(S(=O)(=O)Nc2cccc(Cl)c2)c1 (stereo not given)	2	-6	-5	-1	4	-15	4	35*	-12
N#Cc1ncn(-c2ccc(Oc3ccccc3)cc2)c1N	1	-4	-1	-2	2	0	-1	-3	-1
Cc1ncccc1C(=O)N1CCCC(CNC(=O)C2(c3ccc(Cl)cc3)CC2)C1 (stereo not given)	2	-1	4	-2	0	-5	1	-5	1
Cc1nc2ccc(C(=O)O)cc2nc1C	11	0	1	1	5	0	2	-1	-12
CC(=O)N1CCc2cc(C(=O)CN3CCCCC3)ccc21	0	2	-1	0	2	6	3	9	44*
COC(=O)C1=NN(c2ccc(Cl)cc2)C2C(=O)N(c3ccccc3OC)C(=O)C12 (stereo not given)	-4	-3	3	1	-5	-8	0	-3	1
C=CCn1c(SCCOc2ccc(OC)cc2)nnc1C(C)NC(=O)Cc1ccc(OC)cc1 (stereo not given)	-1	-2	3	4	-4	1	1	-9	4
COc1ccc(-c2nnc(SCc3ccc(C(=O)O)cc3)n2C)cc1OC	-2	-4	2	1	2	-1	4	-3	12
O=C(CN1CCN(c2ccccc2)CC1)Nc1nccs1	9	-2	1	2	4	0	1	-8	-1
O=C(Oc1cccc2cccnc12)c1ccc(N2C(=O)C3C4CCC(C4)C3C2=O)cc1 (stereo not given)	-7	3	-6	-1	0	7	2	-2	14
O=C(Nc1ccnn1C1CCN(Cc2cccc(OCCO)c2)CC1)c1cccc(F)c1	1	0	2	2	1	-3	0	-5	7
COc1ccccc1NC(=O)C(=O)N(c1cccnc1)C(C(=O)NC(C)(C)C)c1ccccc1F (stereo not given)	3	-2	0	0	-2	4	-3	-6	6
O=C(Nc1nccs1)c1ccc(-c2ccc([N+](=O)[O-])cc2)o1	-1	4	-7	-1	-7	0	5	2	-25
CCCCCOc1ccc(N2C(=O)CC(N(O)c3ccccc3)C2=O)cc1 (stereo not given)	4	3	-2	-2	1	-2	4	8	-1

The list goes on, overlapping the part above by 6 compounds.
SMILES	TCR-CD3 inh	PRMT1 inh	MBD2 inh	UHRF1 MBD2 ctr	NPR2 activator	mABHD4 FP	GC-A act	rCAG RNA binder	SIAE inh
O=C(CN1CCN(c2ccccc2)CC1)Nc1nccs1	9	-2	1	2	4	0	1	-8	-1
O=C(Oc1cccc2cccnc12)c1ccc(N2C(=O)C3C4CCC(C4)C3C2=O)cc1 (stereo not given)	-7	3	-6	-1	0	7	2	-2	14
O=C(Nc1ccnn1C1CCN(Cc2cccc(OCCO)c2)CC1)c1cccc(F)c1	1	0	2	2	1	-3	0	-5	7
COc1ccccc1NC(=O)C(=O)N(c1cccnc1)C(C(=O)NC(C)(C)C)c1ccccc1F (stereo not given)	3	-2	0	0	-2	4	-3	-6	6
O=C(Nc1nccs1)c1ccc(-c2ccc([N+](=O)[O-])cc2)o1	-1	4	-7	-1	-7	0	5	2	-25
CCCCCOc1ccc(N2C(=O)CC(N(O)c3ccccc3)C2=O)cc1 (stereo not given)	4	3	-2	-2	1	-2	4	8	-1
CN(C)CCCN1CC(=O)N2[C@@H](Cc3c([nH]c4ccccc34)C2(C)C)C1=O	-3	-2	-1	-3	6	-4	-1	-5	-2
O=[N+]([O-])c1cc(-c2n[nH]c(-c3ccccc3)n2)cc([N+](=O)[O-])c1	-4	4	7	2	0	15	2	4	0
CC(C)(CN1CCc2ccccc2C1)NS(=O)(=O)c1ccccc1	-4	-1	1	1	3	5	0	-5	-5
CSCc1ccc(C(=O)N2CCC(N3CCC(C(=O)NC(C)C)CC3)CC2)o1	1	-1	2	-1	-5	-1	4	-3	13
C=CCSc1nnc2c(n1)[nH]c1c(C)cccc12	-5	-3	-10	-2	x	1	x	3	-3
Cc1ccn(C(=O)c2ccc(NC(=O)CC(C)C)cc2)n1	1	5	6	7	-1	-15	19	0	-3
C[C@H](NC(=O)c1nc[nH]c1C(=O)N(C)Cc1ccccc1)C(=O)OC(C)(C)C	10	0	-9	-1	1	0	1	-8	6
CCN1CCN(c2nc3ccccc3nc2C(C#N)S(=O)(=O)c2ccc(C)cc2)CC1 (stereo not given)	-4	0	-4	2	6	0	1	18	4
COc1ccc(NC(=S)NNC(=O)COc2ccc(Cl)cc2Cl)cc1	-1	24*	-1	4	-2	4	-3	22	10
O=C(Nc1ccccc1)c1ccc(-c2ccc([N+](=O)[O-])cc2)o1	7	2	-2	-3	0	-6	0	12	-7
Cc1nn(-c2ccccc2)c2[nH]c(=O)c(CNCC3CCCO3)cc12 (stereo not given)	-7	2	3	3	-3	8	3	0	-1
Cc1cc(N/N=C\c2ccc(Br)cc2)nc(-n2nc(C)cc2C)n1	-5	1	-3	-2	3	1	0	2	-8
CC(=O)c1c2c3c(c(Br)ccc3n(C)c1=O)C(=O)c1ccccc1-2	4	20	-1	0	-1	19	16	2	1
O=C(NC1CCCCCC1)C1CCN(C(=O)c2ccc(Br)cc2)CC1	2	0	3	-2	1	4	7	-8	13
Cc1ccc(C(=O)CSc2nc(O)cc(=O)[nH]2)cc1C	-1	13	2	1	3	9	2	26	-6
Cc1ccc(NC2SC(=O)N(CC(=O)O)C2=O)cc1 (stereo not given)	2	-1	3	-4	2	2	4	-2	-4
CC1CCCN(C(=O)CSc2n[nH]c(-c3cccs3)n2)C1 (stereo not given)	-6	-1	-3	0	0	4	1	1	3
O=C(NCCc1c[nH]c2ccccc12)/C(=C/c1cccnc1)NC(=O)c1ccco1	-2	-2	-5	-2	0	0	-1	1	4
COc1cccc(/C=C/C(=O)OCC(=O)c2ccc3c(c2)NC(=O)CO3)c1OC	-2	2	0	-1	-1	1	3	1	-4
O=C(COC(=O)/C=C/c1ccccc1)NC1CC1	2	-1	0	-1	0	-3	-1	2	4
Cc1ccc(N2C(=O)C3CCCN3C2=S)cc1Cl (stereo not given)	5	18	-4	4	1	4	5	5	-1
CC1CCc2nc(NC(=O)CN3CCN(c4ccccc4)CC3)sc2C1 (stereo not given)	3	-4	-7	1	-4	0	3	1	1
O=C(CN1C(=O)S/C(=C\c2ccccc2)C1=O)NCCCn1ccnc1	10	4	-2	-6	2	-2	2	2	0
O=C(NNC(=S)NC1CCCCC1)c1ccccc1O	52*	-1	0	-2	5	10	2	6	0
COc1ccccc1NC(=O)c1c(Br)cnn1C	-5	3	-3	2	2	6	-2	2	-5
CCOC(=O)c1c(C)[nH]c(C)c1C(=O)COC(=O)c1cc(OC)c(OC)cc1OC	1	-2	-3	-2	0	-3	-5	-7	8
COc1ccc(C2CC(=O)NC3=C2C(=O)CCC3)cc1Cl (stereo not given)	6	-2	0	0	0	3	2	1	1
O=C(Cn1nc(-c2ccccc2)nc1-c1ccccc1)OC1CCCCC1	2	0	-1	0	-1	-9	-2	-6	0
COc1ccccc1NC(=O)C1=C(C)Nc2nnnn2C1c1cccc(C)c1 (stereo not given)	3	-4	-1	0	-5	6	-6	2	6
COC(=O)Cc1c(C)nc2nc[nH]n2c1=O	-2	-4	-6	0	3	3	2	0	1
CCOC(=O)c1c(N)nn(C(=O)CC)c1-c1ccccc1	-1	0	6	0	-4	1	-5	-1	4
Cc1ncc(CN2CCC(n3nccc3NC(=O)c3ccccc3)CC2)s1	-6	6	0	1	3	-2	3	-4	1
Clc1nn2cnnc2c2ccccc12	-7	6	0	-3	0	3	5	4	-4
COc1ccc(OC)c(-n2c(-c3cc(-c4ccc(F)cc4)n[nH]3)n[nH]c2=S)c1	-2	35*	6	2	-1	-10	-6	27	2
CCOC(=O)c1cnc(-n2[nH]c(C)c(Cc3ccccc3)c2=O)[nH]c1=O	23*	5	-3	-6	-1	12	-1	9	2
COc1ccc(NC(=O)n2nc(OC(=O)c3cccs3)cc2N)cc1	-6	24*	3	-1	4	-5	1	12	-1
COc1cc(OC)cc(C(=O)N[C@H](C(=O)OCC(=O)c2ccc3c(c2)NC(=O)CO3)C(C)C)c1	-1	2	-1	0	-2	-15	-4	7	-4
O=C(Nc1ccc2oc(=O)ccc2c1)c1ccc(-c2ccccc2[N+](=O)[O-])o1	2	-2	0	-8	3	2	3	2	-6
NS(=O)(=O)c1cccc(NS(=O)(=O)c2cccc(C(F)(F)F)c2)c1	3	3	1	1	1	6	3	-10	5
COc1ccc2c(c1)/C(=C\c1cccc(/C=C3/C(=O)Nc4ccc(OC)cc43)n1)C(=O)N2	-1	-1	1	-2	-9	26	-18	13	1
COc1ccccc1-n1c(-c2ccc(NS(C)(=O)=O)cc2)n[nH]c1=S	-1	2	0	-2	4	5	2	-2	0
CCN(CC)CC(=O)N1c2ccccc2Oc2c(c(=O)n(C)c(=O)n2C)C1c1cccc([N+](=O)[O-])c1 (stereo not given)	-6	-4	-5	2	-3	-6	-3	6	-3
N#CC(c1ccncc1)(c1ncc(C(F)(F)F)cc1Cl)N1CCOCC1 (stereo not given)	3	1	1	1	-1	-4	0	-4	3
COc1ccccc1/C=C1\C(=O)Nc2ccccc21	3	1	-1	1	1	-5	1	0	-7
CCOC(=O)c1c(N)nn(C(=O)c2ccccc2)c1-c1ccccc1	7	-1	-12	-2	-7	-6	-2	-3	0
O=C(NNC(=O)c1ccc(-c2ccc([N+](=O)[O-])cc2)o1)c1ccncc1	3	0	-4	-4	-5	4	0	6	5
CC(C)C(=O)O/N=C1\CCS(=O)(=O)c2sccc21	-5	4	2	1	3	-3	4	1	1
Cc1ccc(C)c(Oc2coc3cc(OC(=O)c4cccs4)ccc3c2=O)c1	-2	-2	4	19	-4	-13	-4	2	-7
Cc1ccc(S(=O)(=O)NC(C)(C)CN2CCNCC2)cc1	-14	3	4	1	2	3	2	0	2
c1ccc(Nc2cccc(Nc3ccccc3)c2)cc1	-2	18	5	2	-6	23	5	-3	13
COc1ccc2sc(-c3ccc(N(C)C)cc3)c(-c3cnc(OC)nc3)c2c1	-9	1	4	7	12	-4	5	8	4
C[C@@H](NC(=O)c1nc[nH]c1C(=O)NC1CCN(C(=O)OC(C)(C)C)CC1)c1ccccc1	0	4	-2	1	1	-11	0	-6	-1
C=CCn1c(SCC(=O)N2CCOCC2)nnc1C(C)NC(=O)c1ccccc1 (stereo not given)	-3	-1	-3	-3	3	3	1	-4	0
CN1CCN(c2oc(/C=C/c3ccccc3)nc2C#N)CC1	-2	12	4	2	4	-1	-1	-4	-5
COc1ccc(Oc2coc3cc(OC(=O)/C=C/c4ccc(F)cc4)ccc3c2=O)cc1	0	0	0	5	4	-3	-1	1	4

3 compounds from above, arranged by heavy-atom count, largest number first.
SMILES	TCR-CD3 inh	PRMT1 inh	MBD2 inh	UHRF1 MBD2 ctr	NPR2 activator	mABHD4 FP	GC-A act	rCAG RNA binder	SIAE inh
COc1ccc(Oc2coc3cc(OC(=O)/C=C/c4ccc(F)cc4)ccc3c2=O)cc1	0	0	0	5	4	-3	-1	1	4
C=CCn1c(SCC(=O)N2CCOCC2)nnc1C(C)NC(=O)c1ccccc1 (stereo not given)	-3	-1	-3	-3	3	3	1	-4	0
COc1ccc2sc(-c3ccc(N(C)C)cc3)c(-c3cnc(OC)nc3)c2c1	-9	1	4	7	12	-4	5	8	4
